UUG fidelity = modulators of yeast start codon fidelity, primary screen, whole organism, S. cerevisiae, single point, plate reader. S. cerevisiae UUG-firefly luciferase reporter, luminescence/redox ratio. activity score, % at 18.7 µM. 0.13% of 350,000 active. AID 602363, 2012;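 active = replicate mean at a twofold rise or more, about +100% in these data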;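 note: firefly luciferase made from a UUG start codon reports start codon fidelity; reporter light over untreated wells divided by growth signal over untreated wells; some hits fall short of that in this replicate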
Rce1 inhib = yeast Rce1p protease inhibitors, primary screen, biochemical, fluorescence, cell-free homogeneous | CAAX prenyl protease 2 (Saccharomyces cerevisiae (strain ATCC 204508 / S288c)), Q03530 | yeast membranes, quenched prenylated peptide cleavage fluorescence | calls only | 0.27% of 290,000 active | AID 2563, 2010;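 active = fall in fluorescence gain of 50% or more versus controls, with final raw signal at or below 3038400; inconclusive = same 50% fall but final raw signal above 3038400; inactive = fall in fluorescence gain under 50%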;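 note: plate controls were neutral control wells for no effect and wells lacking membranes for full effect; tested at 10 µM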
Target sequence (Q03530 whole entry, looked up): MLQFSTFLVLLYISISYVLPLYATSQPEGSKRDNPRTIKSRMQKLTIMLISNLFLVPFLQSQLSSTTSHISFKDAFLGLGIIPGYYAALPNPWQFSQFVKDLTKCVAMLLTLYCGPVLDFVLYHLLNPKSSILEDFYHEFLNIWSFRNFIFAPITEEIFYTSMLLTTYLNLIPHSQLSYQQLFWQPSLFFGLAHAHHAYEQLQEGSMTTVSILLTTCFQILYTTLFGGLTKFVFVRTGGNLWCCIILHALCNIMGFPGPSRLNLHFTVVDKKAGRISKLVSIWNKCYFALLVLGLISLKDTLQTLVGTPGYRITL
CSC inhib = cancer stem cell viability inhibitors, primary screen, luminescence; cancer stem cell-like cells viability; inhibition, % at 7.5 µM; 1.1% of 300,000 active;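 active = mean at 75% or more and at least half the replicates too; inconclusive = mean and replicates disagree; tested in HMLE shEcad cells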;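 note: 0% = median of negative and 100% = median of positive control wells; the first replicate is given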
HIV Env fusion = inhibitors of HIV-1 Env-driven cell-cell fusion, primary screen, HeLa-JRFL effector, CEM21 target cells, luciferase; 1.1% of 360,000 active; inhibition, % at 12.3 µM; AID 651610, 2012;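 active = mean replicate inhibition score of at least 50 and every replicate individually at or above 50; inconclusive = only one of the two criteria met; inactive = mean below 50 and not all replicates reaching 50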;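 note: 0% = plate neutral controls and 100% = maraviroc near 300 nM; one replicate is shown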
PABP polyA inh = PABP poly(A) RNA binding inhibitors, primary screen, biochemical, fluorescence polarization, uHTS; Polyadenylate-binding protein 1 (Homo sapiens), P11940; inhibition, % at 35 µM; 1% of 290,000 active;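 active = 50% or more with normal probe brightness, or confirmed in later tests; inconclusive = above 50% with abnormal brightness, or retests that disagree; inactive = below 50% or failed in later tests; about a fifth of its hits are not listed in these tables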;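 note: calls also rest on retests at 20 µM and on dose response follow-up; controls were probe without protein and protein plus probe with vehicle; some compounds called inactive have numbers as strong as hits; many hits fall short of the cut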
Target sequence (P11940 whole entry, looked up): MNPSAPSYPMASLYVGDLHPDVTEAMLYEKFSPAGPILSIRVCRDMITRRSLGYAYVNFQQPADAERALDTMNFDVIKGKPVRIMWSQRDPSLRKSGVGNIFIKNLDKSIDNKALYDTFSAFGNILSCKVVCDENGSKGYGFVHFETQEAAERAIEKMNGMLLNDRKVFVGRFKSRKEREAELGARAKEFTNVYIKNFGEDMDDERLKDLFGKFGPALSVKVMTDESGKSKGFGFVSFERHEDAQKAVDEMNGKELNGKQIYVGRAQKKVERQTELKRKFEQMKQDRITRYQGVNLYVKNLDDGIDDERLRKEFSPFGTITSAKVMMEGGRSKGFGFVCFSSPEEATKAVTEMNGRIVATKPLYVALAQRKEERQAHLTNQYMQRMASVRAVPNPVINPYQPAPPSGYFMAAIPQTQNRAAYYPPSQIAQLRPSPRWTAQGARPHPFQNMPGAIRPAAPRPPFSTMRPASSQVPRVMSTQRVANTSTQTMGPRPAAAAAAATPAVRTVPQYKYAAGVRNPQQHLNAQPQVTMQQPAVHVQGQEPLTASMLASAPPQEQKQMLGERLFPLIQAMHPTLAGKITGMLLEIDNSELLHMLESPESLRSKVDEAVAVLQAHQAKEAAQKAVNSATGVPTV
MT1-MMP act inh = blockers of MT1-MMP proenzyme processing, primary screen, HT1080 RFP-PRO-GFP cells, GFP/RFP fluorescence; Matrix metalloproteinase-14 (Homo sapiens), P50281; GFP/RFP ratio fluorescence, overnight; percent of plate control window, DMSO zero; AID 651647, 2012; GFP/RFP ratio change, % at 20 µM; 0.061% of 360,000 active;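 active = GFP/RFP ratio change of at least 30% with cell ATP level not reduced by more than half and red fluorescence within 50% of control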; note: strong numbers were not always called active
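Assay system – RFP-PRO-GFP reporter HT1080 cells · Compound dosing – single dose of 20 µM compound, 1% DMSO final · Incubation – overnight compound exposure at 37 °C · Measure – GFP/RFP fluorescence ratio · Benchmarks – DMSO wells and RFP-L50D-GFP cells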
eIF4H FP inh = human eIF4H binding inhibitors, primary screen, translation initiation inhibitor project, biochemical, uHTS, fluorescence polarization; inhibition, % at 35 µM; AID 2012, 2009; 0.94% of 290,000 active; eIF4H fluorescence polarization binding assay;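 active = 50% or more with normal probe brightness, or confirmed in later tests; inconclusive = above 50% with abnormal brightness, or retests that disagree; inactive = below 50% or failed in later tests; about a fifth of its hits are not listed in these tables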;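 note: calls also rest on retests at 20 µM and on dose response follow-up; 0% = protein and probe with vehicle and 100% = probe without protein; strong numbers were not always called active; many hits fall short of the cut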
MT1-MMP act inh RFP = also measured in MT1-MMP act inh; calls as there; RFP signal change, %; measured here: RFP expression control read;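 0 = vehicle wells; hits needed this value within 50% of zero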
An asterisk follows results filed as active; i = inactive; ? = inconclusive; . = not tested or not shown. Not all compounds are listed (hit frequency here may not be typical).

SMILES	UUG fidelity	Rce1 inhib	CSC inhib	HIV Env fusion	PABP polyA inh	MT1-MMP act inh	MT1-MMP act inh RFP	eIF4H FP inh
CCOc1ccc(/C=N/NC(=O)c2ccccc2Cl)cc1CN1CC2CC(C1)c1cccc(=O)n1C2 (stereo not drawn)	3	.	5	.	.	-3	0	.
CCN(CC)c1ncnc2c1ncn2[C@H]1CN(Cc2ccc3c(c2)OCO3)C[C@@H](CO)O1	-4	.	.	-21	.	-1	-1	.
CCOc1ccccc1NC(=O)CN1CCC(NC(=O)c2ccccc2)CC1	-4	i	-6	.	-1	-1	0	-5
O=C1c2ccccc2S(=O)(=O)N1CCOc1ccccc1	-17	.	-9	-64	4	3	0	1
Cc1cc(C(=O)CSc2ccc3c(c2)OCCO3)c(C)n1C1CC1	.	i	5	-20	2	-3	-1	13
COc1ccc(CCNCCC(c2ccccc2)c2ccccc2)cc1OC	-3	.	.	-19	.	1	1	.
CCN1/C(=C(\O)c2ccccc2)C(=O)c2ccccc2S1(=O)=O	-23	i	-3	31	2	-9	-5	3
COc1ccc(S(=O)(=O)CCC(=O)Nc2cc(C)ccc2OC)cc1	.	i	-1	-14	?	-2	3	-8
CCc1ccc(OCC(=O)Nc2ccc(S(=O)(=O)Nc3ccccn3)cc2)cc1	-19	i	1	0	9	-1	-3	-2
CCc1ccccc1NC(=O)CCNS(=O)(=O)c1cc(Br)cnc1N	-2	i	-15	21	.	-2	-2	.
CC1CC(C)CN(C(=O)c2cc3c(=O)n4ccccc4nc3s2)C1 (stereo not drawn)	-11	i	-16	-3	-3	2	3	2
O=C(CNS(=O)(=O)c1ccc(Br)s1)N1CCN(c2ccc(F)cc2)CC1	2	i	-4	1	12	2	-5	9
COc1c(C)cc(C(=O)C2CCCN(Cc3ccc(Oc4ncccn4)cc3)C2)cc1C (stereo not drawn)	-5	i	.	4	0	3	-2	3
Cc1ccc2nc(-c3cccc(S(=O)(=O)N4CC(C)OC(C)C4)c3)cn2c1 (stereo not drawn)	-6	i	-9	-13	-7	0	-19	4
CCOC(=O)c1cnc2cc(F)c(F)cc2c1N1CCOCC1	3	i	-15	30	-1	1	0	-1
CCOC(=O)N1CCC(N(C(=O)Nc2cccc(OC)c2)C(C)CC)CC1 (stereo not drawn)	-9	i	31	.	11	5	1	3
O=C(CCn1[nH]c(=O)c2ccccc2c1=O)N1CCOCC1	.	i	5	.	3	2	3	-3
CCOC(=O)NN1C(=O)c2ccccc2NC1c1cccc(O)c1 (stereo not drawn)	.	i	6	-9	0	1	5	0
O=C(CCN1C(=O)c2ccccc2C1=O)NC(=S)Nc1ccccc1Cl	-17	i	-12	27	1	2	5	-3
COc1ccc(CC2SC(N)=NC2=O)cc1 (stereo not drawn)	-21	i	1	-3	8	2	2	4
COc1ccccc1CNC(=O)C(CC(C)C)NS(=O)(=O)c1ccc2c(c1)oc(=O)n2C (stereo not drawn)	-17	i	-9	-13	0	-4	3	1
COCc1cc(C)nc(SCC(=O)NCC2CCCO2)c1C#N (stereo not drawn)	-2	.	-4	5	12	0	5	5
Cc1ccccc1-n1c(N)cc(=O)[nH]c1=S	-23	i	7	-38	-2	1	1	-1
Cc1nc2c([nH]c3ccccc32)c(=O)n1N	-5	i	2	-4	-5	1	2	-2
Cc1ccc(-c2nnn(CC(=O)N(CC(=O)NC(C)C)c3cnc4ccccc4c3)n2)o1	-3	i	.	.	-3	0	-4	-7
CCOc1ccc(-c2cn(-c3ccc(OC)cc3)c(SC)n2)cc1	-22	i	22	-193	-2	-3	-6	4
Cc1cccc(C)c1NC(=S)N1CCOCC1	.	i	-8	1	-9	-3	-1	0
O=c1cc(-c2cccnc2)oc2c1ccc1ccccc12	-7	i	.	-2	2	-8	-2	7
CC1CCCN(S(=O)(=O)c2ccc(NC(=O)C3CC(=O)N(c4ccccc4)C3)cc2)C1 (stereo not drawn)	-10	.	8	-1	4	0	-7	4
COC(=O)c1cc(=O)n(Cc2ccc(OC)c(OC)c2)c(=Nc2ccc(F)cc2)s1	-3	i	97*	-23	-9	-8	-15	5
CS(=O)(=O)c1ccc2nc(NC(=O)CN3CCOCC3)sc2c1	-17	i	9	-5	-7	0	0	3
CCOC(=O)C1(Cc2ccc(OC)cc2)CCN(C(=O)C2CC(=O)N(C3CC3)C2)CC1 (stereo not drawn)	-2	i	-1	-3	-1	5	0	-6
O=C(NC1CC1)C1CCN(C2CCN(C(=O)Cc3ccc(F)cc3)CC2)CC1	-3	i	9	2	-3	-1	0	-6
Cc1c(NC(=O)CN(c2ccccc2)S(=O)(=O)c2ccc(F)cc2)c(=O)n(-c2ccccc2)n1C	-4	i	-5	8	-9	1	2	-11
CSc1ccc(C(=O)C2CCCN(C(=O)c3csc(C(C)=O)c3)C2)cc1 (stereo not drawn)	.	i	6	6	-4	-2	-2	3
CCOc1ncccc1C(=O)N1CCN(C(=O)c2ccccc2)CC1	0	i	-10	12	0	2	4	-2
Cc1ccc(SCCNC(=S)Nc2cc(C)ccc2C)cc1	-21	i	3	.	-7	-6	-4	-6
CN1CCN(c2cc(=O)n(Cc3ccc(F)cc3)c(=O)[nH]2)CC1	-6	i	-1	.	-14	-6	1	-1
COc1ccc(/C=N/NC(=O)c2nnn(-c3nonc3N)c2-c2cccs2)c(OC)c1	7	i	-2	9	-10	1	5	-10
O=C(NCc1nc(-c2ccccc2)no1)c1ccc(Br)o1	-1	i	7	23	-5	14	-10	14
COc1cccc(N(CC(=O)NCCN2CCOCC2)S(=O)(=O)c2ccccc2)c1	-11	i	-19	7	.	4	5	.
COc1cccc(OC)c1C(=O)OCC(=O)N(c1ccccc1)C1CCCCC1	5	.	70	13	.	13	-8	.
CC(=O)Nc1ccc(NC(=O)C(C)OC(=O)c2c(NC(C)=O)sc(C)c2C)cc1 (stereo not drawn)	-17	.	12	-9	.	6	5	.
COc1ccccc1C(=O)NC1CCSc2ccccc21 (stereo not drawn)	-13	i	-7	-4	0	0	2	-3
CSc1ccc(CN2CCC(Cc3ccccc3)CC2)cc1	-16	i	32	-6	2	0	1	16
Cc1ccc(-c2nnc(OCCN3CCOCC3)c3ccccc23)cc1	-5	i	-16	-216	0	4	0	-2
COc1ccc(C2CC(c3cccs3)=NN2C(=O)CSc2nc3ccccc3s2)cc1 (stereo not drawn)	-8	i	-1	21	1	-3	-5	-7
Cn1c(=O)c2c(SCC(=O)Nc3ccccc3F)nc(C3CC3)nc2n(C)c1=O	6	i	-8	2	12	-5	-8	3
CC(=O)Nc1cccc(NC(=O)CSc2n[nH]c(-c3ccccc3)n2)c1	-6	.	-11	9	.	2	3	.
COc1ccc(C(=O)COC(=O)c2ccccc2C(=O)N(C)c2ccccc2)c(OC)c1	6	i	6	-14	.	.	.	.
Clc1ccc(NCc2nnc3n2CCCCC3)cc1	-11	i	.	.	6	-2	3	-12
COc1ccc2oc(=O)c(C(=O)n3ccc(C)n3)cc2c1	-25	i	-1	.	-1	3	-3	0
N#Cc1ccc(OCC(=O)OCC(=O)c2ccc[nH]2)cc1	-9	.	.	12	.	-2	7	.
CCCN(CC(=O)Nc1ccccc1OC)C(=O)c1cc2ccccc2o1	.	i	-9	15	-3	-1	3	0
O=C(CSc1ncnc2c1oc1ccccc12)N1CCN(c2ccccc2)CC1	-3	.	9	-6	.	5	1	.
CCc1nc2c(c(=O)[nH]1)C(CC)(CC)Cc1ccccc1-2	-5	i	0	-29	4	0	0	-9
COc1cccc(C(=O)c2c[nH]c(C(=O)NCCCN3CCOCC3)c2)c1	.	i	-10	8	-8	1	1	-8
CCOc1cc(/C=N/n2cnnc2)ccc1O	-17	i	-6	.	17	2	4	6
c1ccc(-n2cnc3ccccc32)cc1	.	i	17	35	4	-11	-5	8
COc1ccccc1C(=O)NCC(=O)n1nc(C)cc1C	-13	i	-13	-69	-2	-3	1	-2

Compound profiles, from the list above. Values in the order: UUG fidelity | Rce1 inhib | CSC inhib | HIV Env fusion | PABP polyA inh | MT1-MMP act inh | MT1-MMP act inh RFP | eIF4H FP inh
Profile of `COc1ccccc1C(=O)NC1CCSc2ccccc21` (stereo not drawn) : -13 | i | -7 | -4 | 0 | 0 | 2 | -3
Profile of `Clc1ccc(NCc2nnc3n2CCCCC3)cc1` : -11 | i | . | . | 6 | -2 | 3 | -12

Following part
SMILES	UUG fidelity	Rce1 inhib	CSC inhib	HIV Env fusion	PABP polyA inh	MT1-MMP act inh	MT1-MMP act inh RFP	eIF4H FP inh
O=C(NCCSCc1ccco1)Nc1ccccc1	-23	i	-5	.	13	3	4	1
Cc1cc(C)c(C(=O)C(C)OC(=O)c2ccccn2)cc1C (stereo not drawn)	-22	i	-21	16	-5	-2	2	-2
O=C(NC(N1CCOCC1)C(Cl)(Cl)Cl)c1ccc(F)cc1 (stereo not drawn)	.	i	-3	4	1	2	2	-2
Cc1ccc(S(=O)(=O)Nc2nc(C)cc(NCCN)n2)cc1	-9	i	-1	.	-6	-1	3	10
COc1ccc(N(CC(=O)N2CCc3ccccc32)S(=O)(=O)c2c(C)nn(C)c2C)cc1	-7	i	1	-11	1	-4	-2	8
N=c1n(CCc2ccccc2)c2ccccc2n1Cc1ccccc1F	.	i	30	-15	3	-10	-8	-4
O=C(COC(=O)c1ccccc1Br)NC(=O)NCc1ccccc1	3	.	-10	.	.	4	2	.
CC(=O)N(C(C)=O)c1c(N2CCOCC2)c2ccccc2oc1=O	-11	i	3	.	0	4	4	-3
CCc1ccc(NC(=O)CCCNC(=O)Cn2cnc3sc(C)c(C)c3c2=O)cc1	.	i	16	-1	-8	3	0	-1
CSC(SC)=C(C(C)=O)C(=O)c1ccc(C)cc1	.	i	13	3	-4	2	6	2
CCOc1ccc(C2CC(c3cccc(C)c3)n3nc(N)nc3N2)cc1 (stereo not drawn)	-19	i	-3	20	-16	0	0	-6
COc1ccc(C(CNC(=O)c2cc3ccccc3cc2O)N2CCOCC2)cc1 (stereo not drawn)	5	i	3	.	.	-1	-1	.
CCC(NC(=O)c1ccccc1NC(=O)c1ccccc1)C(=O)OC (stereo not drawn)	.	i	-11	0	8	9	5	-6
COc1ccc(/C=C2\CCn3c2nc2ccccc2c3=O)cc1OC	-17	i	.	.	-3	0	-3	-11
COc1ccc(C2CC(c3ccc([N+](=O)[O-])cc3)=NN2C(=O)c2ccccc2)cc1OC (stereo not drawn)	1	i	-7	-21	0	.	.	-6
Cc1cc(C)n(C(=O)C23CC4CC(CC(C4)C2)C3)n1	.	i	-8	.	1	.	.	9
CC(=O)Nc1c(C)nn(-c2ccc([N+](=O)[O-])cc2)c1C	-3	i	1	3	-5	0	6	-9
CCOC(=O)c1ccc(NC(=O)Nc2ccc(Cl)cn2)cc1	.	i	.	2	8	2	2	1
N#C/C(=C\c1cn(CCOc2ccccc2)c2ccccc12)C(=O)NCC1CCCO1 (stereo not drawn)	3	i	.	19	-5	0	-2	8
COc1ccc(CCNS(=O)(=O)c2ccc3c(c2)OCCO3)cc1	-4	i	-3	.	-4	-5	0	-1

Screening results as filed in PubChem BioAssay.
